Assay outcomes (PubChem BioAssay)
GIV-Gai inh – blocks GIV peptide binding to rat Galpha-i3. Galpha-i3/FITC-GIV peptide fluorescence polarization, 90 min; hits give low values; scaled: aluminum fluoride 0%, vehicle 100%. hit rate 0.42% among 210,000. percent of control (FP), % (concentration not given with the values). P08753;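 active means replicate mean at 85% of control or lower, very high polarization wells dropped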;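 further: wells of about 15 µL received 100 nL stock; the first replicate is given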
Target sequence (P08753 whole entry, looked up): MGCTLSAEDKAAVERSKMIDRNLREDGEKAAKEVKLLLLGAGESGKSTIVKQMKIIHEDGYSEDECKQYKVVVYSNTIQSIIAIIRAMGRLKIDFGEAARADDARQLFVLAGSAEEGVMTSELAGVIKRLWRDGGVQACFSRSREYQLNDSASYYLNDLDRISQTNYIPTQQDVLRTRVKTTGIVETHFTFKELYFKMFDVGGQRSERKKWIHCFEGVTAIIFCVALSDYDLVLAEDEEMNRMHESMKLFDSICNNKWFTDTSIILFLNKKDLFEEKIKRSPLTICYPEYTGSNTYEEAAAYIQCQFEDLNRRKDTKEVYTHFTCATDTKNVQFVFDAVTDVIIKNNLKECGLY
Sa growth 42C – inhibitors of Staphylococcus aureus growth at 42 °C; S. aureus RN4220 growth, OD600, 20 h; hits give low values; relative growth, % (concentration not given with the values); hit rate 0.53% among 170,000; AID 720641;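 active means growth at 42 °C up to 50% and 20 or more points under that at 30 °C, or under 10% at both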;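 further: 300 nL library stock went into each well; scaled to the means of positive and negative controls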
HCMV UL50-53 inh – inhibitors of HCMV UL50-UL53 nuclear egress complex interaction; HTRF UL50-UL53 interaction, normalized percent inhibition; inhibition, % (concentration not given with the values); hit rate 0.15% among 190,000; AID 1918969;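 active means both replicates at 50% or more, plus weaker picks with an unusually low signal ratio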;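 further: stock transfer was 100 nL into about 20 µL; 0% = negative control wells and 100% = wells with untagged competitor protein; inactives centre near -12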
Sa growth 42C second temp – recorded beside Sa growth 42C, whose call it bears; relative growth, %; measured here: growth at 30 °C;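 optical density after 20 h as mean of two plates; 100% = untreated growth and lower means inhibition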
Active calls of the source: *; . = no result given; & = joins results of further samples.

SMILES | GIV-Gai inh | Sa growth 42C | Sa growth 42C second temp | HCMV UL50-53 inh
CCc1ccc(-c2cc3n(n2)CC(C)(C(=O)NC2CCCCC2)N(C2CCCC2)C3=O)cc1 (stereo unspecified) | 100 | . | . | 8
Cc1nc(-c2ccccn2)nc(NC2CCN(c3ncc(C(F)(F)F)cc3Cl)CC2)c1Cl | 104 | 110 | 83 | -5
CCCCN(CC)CCN1C(=O)c2cc3occc3n2CC1(C)C(=O)NC1CCC(C)CC1 (stereo unspecified) | 100 | . | . | -8
O=C(Nc1ccc(N2CCCCC2)cc1)Nc1ccc(F)cc1F | 112 | 98 | 95 | -6
O=C(COC(=O)c1ccccc1O)c1ccc(Cl)cc1 | 103 | 101 | 97 | 3
COc1ccccc1N1CCN(C(=O)CSc2nc(-c3ccc(F)cc3)cc(C(F)(F)F)n2)CC1 | 101 | . | . | -15
O=C(CSc1ncnc2nc(N3CCCCC3)sc12)NC1CCCC1 | 97 | . | . | -20
Cc1ccc(-n2c(C)cc(/C=N/NC(=O)CC3(C)OCCO3)c2C)cc1 | 106 | 106 | 79 | -28
CC1CCCN(CNC(=O)c2ccccc2)C1 (stereo unspecified) | 99 | 93 | 74 | -8
CCOc1ccc(C=NC2=C(C#N)CCC2)cc1OC | 107 | 98 | 97 | -3
CCn1c(=O)c(N2CCC(C(=O)Nc3ccc(C)c(F)c3)CC2)c(C)n(-c2ccccc2)c1=O | 106 | . | . | -31
CCN1CCN(C2(CNC(=O)C(C)C)CCCCC2)CC1 | 102 | . | . | -14
Cc1cccc(OCC(=O)Nc2c(C(=O)N3CCN(c4ccccc4F)CC3)oc3ccccc23)c1 | 105 | 121 | 101 | -13
c1ccc(OCCSc2nncn2-c2ccccc2)cc1 | . | 114 | 99 | 2
CCn1c(=O)oc2cc(NC(C)=O)ccc21 | 97 | . | . | 4
COc1cc(-c2cc(C(F)(F)F)n3ncc(C(=O)N4CCN(Cc5ccccc5)CC4)c3n2)cc(OC)c1OC | 106 | . | . | 27
C=CCNC(=O)c1ccc2c(c1)CCCN2S(C)(=O)=O | 98 | . | . | 2
COc1ccc(C2CC(=O)C3=C(C2)NC(C)=C(C(=O)OCC(C)C)C3c2cc(OC)ccc2OC)cc1 (stereo unspecified) | 101 | . | . | -21
O=C(COC(=O)c1ccc2c(c1)OCCO2)NCc1ccccc1 | . | 106 | 94 | 3
COc1ccc(C)cc1NC(=O)C1CCN(S(=O)(=O)c2ccc(OC)c(OC)c2)CC1 | 106 | 101 | 86 | -4
COc1ccc(CNCCC2(O)CC(C)N(C)CC2C)cc1OC (stereo unspecified) | 105 | 115 | 90 | -10
CC1CCN(S(=O)(=O)c2ccc3nc(NCc4ccc(F)cc4)ccc3c2)CC1 | 100 | 91 | 85 | .
CC(Nc1ncccc1-c1nc(-c2ccccc2)no1)c1ccccc1 (stereo unspecified) | 98 | . | . | -24
CCOc1ccc(-c2[nH]ncc2-c2csc(C)n2)c(O)c1 | . | 115 | 93 | 16
NCCC(Cc1ccccc1)c1ccco1 (stereo unspecified) | 101 | 95 | 83 | -23

Complete entries, looked up by structure. Order of screens: GIV-Gai inh	Sa growth 42C	Sa growth 42C second temp	HCMV UL50-53 inh
`CCn1c(=O)c(N2CCC(C(=O)Nc3ccc(C)c(F)c3)CC2)c(C)n(-c2ccccc2)c1=O` is listed with 106	.	.	-31
`COc1cc(-c2cc(C(F)(F)F)n3ncc(C(=O)N4CCN(Cc5ccccc5)CC4)c3n2)cc(OC)c1OC` is listed with 106	.	.	27
`C=CCNC(=O)c1ccc2c(c1)CCCN2S(C)(=O)=O` is listed with 98	.	.	2
`O=C(COC(=O)c1ccc2c(c1)OCCO2)NCc1ccccc1` is listed with .	106	94	3
`Cc1nc(-c2ccccn2)nc(NC2CCN(c3ncc(C(F)(F)F)cc3Cl)CC2)c1Cl` is listed with 104	110	83	-5

The results go on:
SMILES | GIV-Gai inh | Sa growth 42C | Sa growth 42C second temp | HCMV UL50-53 inh
Cc1ccsc1C(=O)OCc1ccc(C#N)cc1 | . | 90 | 94 | -6
Cc1nc2c(-c3ccc(F)cc3)c(C)nn2c(C)c1CCC(=O)N1CCC(Cc2ccccc2)CC1 | 102 | . | . | 11
COCCn1cc(C(=O)NC2CCCCCC2)c2c3ccccc3n(C)c2c1=O | 96 | 84 | 105 | .
O=C(NCCc1ccccc1)C1c2ccccc2-c2ccccc21 | . | 202 | 71 | -4
COc1cccc(-c2c(C(N)=O)nnc3cc(-c4ccccc4)nn23)c1 | 105 | 82 | 86 | -40
Cn1c(-c2nonc2NC(=O)c2cccs2)nc2ccccc21 | . | 101 | 86 | 3
CC(=O)Nc1c2n(c3ccc(F)cc13)CC(C)(C(=O)NC1CCCC1)N(C1CCCC1)C2=O (stereo unspecified) | 97 | . | . | -6
O=C(CSc1nnc(-c2c[nH]c3ccccc23)o1)NC1CC1 | . | 110 | 92 | 6
CCCCN(C)C(=O)C1CCN(Cc2ccc(OCc3ccccc3)c(OC)c2)CC1 | 98 | 93 | 115 | 14
O=C1CCCc2[nH]c(=O)c(C(=O)Nc3cccc(F)c3)cc21 | 103 | . | . | -21
O=C(/C=C1\Sc2ccccc2NC1=O)NCc1ccco1 | 104 | 111 | 78 | .
COc1ccc(C)cc1NC(=O)CN1C(=O)COc2ccc(S(=O)(=O)NC3CCCC3)cc21 | 104 | 83 | 85 | .
COC(=O)c1ccc(C2C(S(=O)(=O)c3ccccc3)=C(O)C(=O)N2c2cccc(Cl)c2)cc1 (stereo unspecified) | 102 | . | . | -17
Cc1ccc(NC(=S)NC(=O)CC(C)C)cc1 | 100 | 102 | 98 | -6
CCc1nc(N2CCCCC2)c2sc(=S)n(-c3ccccc3)c2n1 | . | 90 | 85 | -12
CC(=O)c1cccc(NC(=O)C2CCN(S(=O)(=O)c3ccccc3)CC2)c1 | 107 | 95 | 85 | -35
CC1=CC(C)C(COC(=O)Nc2ccccc2)C(C)C1 (stereo unspecified) | 101 | 87 | 83 | -17
C=C(C)n1c(=O)n(Cc2ccc(C)cc2)c2ccccc21 | 106 | 84 | 64 | .
CCSc1nnc2c(n1)OC(c1cc(OC)c(O)c(OC)c1)Nc1ccccc1-2 (stereo unspecified) | 111 | . | . | -23
O=C(CCc1c[nH]c2ccccc12)OCc1nnc(-c2ccccc2)o1 | 100 | 108 | 99 | -27
CN(C)c1ccc(-n2nnnc2SCc2ccc(OC(F)(F)F)cc2)cc1 | 94 | 105 | 95 | -13
CCc1c(C)nc2nc(-c3ccccc3)nn2c1NCCc1ccccc1 | 106 | . | . | 0
COc1cccc(OCc2nn3c(-c4ccc5ccccc5n4)nnc3s2)c1 | 109 | . | . | -6
CC(C)N(Cc1nc(-c2ccccc2)no1)C(=O)C(c1ccccc1)c1ccccc1 | 102 | 104 | 85 | -23
N/C(=N\O)c1ccc(N2CCN(c3ncccc3C(F)(F)F)CC2)nc1 | 101 | 88 | 77 | .

Nothing new here: entries from further up.
SMILES | GIV-Gai inh | Sa growth 42C | Sa growth 42C second temp | HCMV UL50-53 inh
COCCn1cc(C(=O)NC2CCCCCC2)c2c3ccccc3n(C)c2c1=O | 96 | 84 | 105 | .
O=C(NCCc1ccccc1)C1c2ccccc2-c2ccccc21 | . | 202 | 71 | -4
COc1cccc(-c2c(C(N)=O)nnc3cc(-c4ccccc4)nn23)c1 | 105 | 82 | 86 | -40

The list goes on.
SMILES | GIV-Gai inh | Sa growth 42C | Sa growth 42C second temp | HCMV UL50-53 inh
Cc1ccccc1Cn1ccc(NC(=O)C2=CC(c3ccc(F)cc3)=NS(=O)(=O)N2C)n1 | 102 | . | . | 4
CC1CC2OC(C)(C)OC2C(OC(=O)c2ccccc2)O1 (stereo unspecified) | . | 86 | 114 | -4
CC1CCCCN1C(=O)CSc1nc2ccccc2c(=O)n1Cc1ccc(C(=O)NCc2ccco2)cc1 (stereo unspecified) | 100 | 95 | 86 | 2
COc1cc2nc(NC(=O)c3ccc(S(=O)(=O)N4CCCC4)cc3)sc2cc1OC | 97 | 103 | 96 | .
COc1ccc(NC(=O)c2nc(S(C)(=O)=O)ncc2Cl)cc1Cl | 98 | 21 | -1 | .
Cc1cc(C)nc(SCC(=O)OCC(=O)c2cc(C)n(C)c2C)n1 | . | 102 | 91 | -4
O=c1c(S(=O)(=O)c2cc(F)cc(F)c2)c[nH]c2c(F)c(Cl)ccc12 | 101 | . | . | -24
Cc1ccc(CNC(=O)c2ccc3c(O)c(S(=O)(=O)c4ccc(Cl)cc4)c(=O)[nH]c3c2)cc1 | 102 | 106 | 84 | .
CCN(Cc1ccccc1)C(=O)Cn1nc(C)n2c(cc3occc32)c1=O | 105 | 81 | 77 | -6
CC(C)Cn1c(=O)c2cc(Cl)ccc2n2c(SCc3ccc(Cl)cc3)nnc12 | 99 | . | . | 20
COc1ccc(NC(C)=S)cc1OC | . | 95 | 88 | -5
Cc1ccc(CSCCC(=O)O)cc1 | 101 | 105 | 94 | .
O=C(NC(=O)c1ccccc1F)NC1CC1 | 110 | 96 | 103 | 4
COc1ccc(C2CC(C(F)(F)F)n3nc(C(=O)Nc4cccc(C(C)O)c4)c(Cl)c3N2)cc1OC (stereo unspecified) | 93 | . | . | -20
Cc1cccc(NC(=O)CN(CC(=O)Nc2cccc(C)c2C)Cc2ccco2)c1C | . | 115 | 95 | -10
CN1CCN(C(=O)Nc2ccccc2)c2ccccc21 | 98 | . | . | -28
Cc1ccc(CSCC(=O)N2CCN(c3ccccc3)CC2)cc1 | 107 | 103 | 82 | .
COC(=O)C1=C(C)NC2=C(C(=O)CC(c3ccco3)C2)C1c1cccc(OC)c1 (stereo unspecified) | 101 | 83 | 62 | -16
COCCn1c(CNC(=O)c2cccc(N(C)C)c2)nc2cccnc21 | 107 | 116 | 83 | .
COc1cc2c(cc1OC)C(Nc1ccc(Br)cc1)=NC(C)(C)C2 | 101 | 99 | 85 | .
CC(C)CCOc1ccc(C(=O)Nc2sc3c(c2C#N)CCCCC3)cc1 | 111 | 94 | 109 | -15
NC(=O)C(c1ccccc1)c1ncc(C(F)(F)F)cc1Cl (stereo unspecified) | 100 | . | . | -4
CCOC(=O)c1cnc(SC(CC)C(=O)Nc2ccc3c(c2)OCO3)nc1N (stereo unspecified) | 104 | . | . | -9
COc1ccc(C(=O)COC(=O)c2ccc(S(=O)(=O)N(C)C)cc2)cc1 | . | 103 | 93 | 6
COc1ccc(-c2noc(-c3cn(Cc4ccc(NC(=O)CC(C)C)cc4)cn3)n2)cc1OC | 102 | . | . | -5
The list continues:
SMILES | GIV-Gai inh | Sa growth 42C | Sa growth 42C second temp | HCMV UL50-53 inh
CCOC(=O)c1c(S(=O)(=O)N2CCCC(C(=O)Nc3cccc(Cl)c3)C2)c(C)n(C)c1C (stereo unspecified) | 107 | 122 | 93 | .
Cc1ccc2[nH]c(=S)n(C3CC4C=CC3C4)c(=O)c2c1 (stereo unspecified) | 100 | 78 | 89 | -47
CCNC(=O)N1CCc2cc(S(=O)(=O)Nc3ccc(OC)cc3)ccc21 | 99 | . | . | -23
C=CCn1c(SC)nc2sc(CC)cc2c1=O | 103 | 102 | 75 | -6
N#CCc1ccc(NC(=O)c2cc(Cl)ccc2NS(=O)(=O)c2cccc3nsnc23)cc1 | 104 | . | . | -29
c1ccc(CN2CCN(CCCNc3ccc4nncn4n3)CC2)cc1 | 102 | 117 | 102 | 0
N#Cc1ccc(Cn2c(CC3CCS(=O)(=O)C3)nc3ccccc32)cc1 (stereo unspecified) | . | 113 | 76 | -3
Cc1ccc2ccc3cc(C(=O)Nc4ccc(C)c(F)c4)nc3c2[nH]1 | 98&110 | 80 | 90 | -4
CCOc1ccc(NC(=O)NCc2ccc3c(c2)CCN3C(C)=O)cc1 | 100 | 95 | 99 | .
COc1ccc(C2C(C(=O)NC3CCCC(C)C3C)c3ccccc3C(=O)N2C)cc1 (stereo unspecified) | 98 | 104 | 88 | .
O=C(Cc1nc(-c2cccs2)no1)Nc1cccc(C(F)(F)F)c1 | 102 | 93 | 91 | .
CCCCc1ccc(NC(=O)Cc2csc(COc3cccc(C)c3)n2)cc1 | 113 | . | . | -4
CC(C)Sc1nc(N2CCOCC2)c2c(c1C#N)CC(C)(C)OC2 | 103 | . | . | -32
Cc1c(C(=O)N2CCC(N3CCCCC3)CC2)sc2ncnc(N3CCN(C)CC3)c12 | 103 | . | . | -32
COC(=O)c1sccc1NS(=O)(=O)c1ccc2c(c1)CCO2 | 108 | 117 | 97 | 0
Cc1ccc(C)n1-c1sccc1C(=O)OCc1cc(=O)n2c3c(sc2n1)CCCC3 | . | 75 | 53 | -34
Cc1ccc(NCc2nc3nc(C)cc(C)n3n2)cc1 | 100 | . | . | -34
O=C1NC(=Nc2ccc(Br)cc2)SC1Cc1cccc(C(F)(F)F)c1 (stereo unspecified) | 98 | . | . | -34
NC(=O)C1CCN(S(=O)(=O)c2cc3c(cc2Cl)NC(=O)CO3)CC1 | 105 | 108 | 85 | .
COc1ccc(-c2nn3c(=O)cc(CNC(=O)Nc4cc(OC)cc(OC)c4)nc3s2)cc1 | 103 | . | . | -36
Cc1ccccc1CN1C(=O)c2ccccc2S(=O)c2ccc(C(=O)NCCC(C)C)cc21 (stereo unspecified) | 109 | . | . | -2

The order is random. Share with any hit: about 0.79%.
